Source: PubChem BioAssay (National Center for Advancing Translational Sciences (NCATS))
miR-21 reporter = miR-21 reporter, rising signal; HeLa miR-21 FLuc reporter, luciferase, 48 h; 340,000 tested, under 10 active; Potency, µM (doses to about 38.3 µM), inactives show at the highest dose reporter change, positive = more light; active = well fitted rising curve with a large enough effect; inconclusive = small, poorly fitted or top-dose-only effect; inactive = no such curve, though single readings can be large or run the other way;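 further: % of control where 0% means no effect; miR-21 action dims this reporter so a rising signal means less miR-21 action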
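Using DMEM plus 10% FBS, HeLa miR-21-FLuc cells are incubated with test compounds (final up to about 40uM) for 48 hours; firefly luciferase signal is then imaged following reagent-mediated lysis.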
Rango release inh = inhibition of RanGTP-driven Rango-importin beta dissociation; 0.071% of 340,000 active; Biochemical FRET Rango-importin beta, RanGTP-induced dissociation; O95149+P62826; Potency, µM (top dose mostly 46.1 µM), inactives show at the highest dose activity change, negative = inhibition; active means falling FRET ratio curve, often poorly fitted, with flat reads before Ran was added; inconclusive means other falling curves, or compound fluorescence or quenching; inactive means flat or rising ratio curve;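 further: potency means the concentration at half of the fitted maximal effect; % of control where 0% means no effect; nearly all actives have a fitted effect of over 45% in size; -100% = wells without RanGTP and RCC1; the record marks most hits as doubtful in a second field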
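FRET read at 45 min, room temperature: inhibitors block the CFP/YFP signal rise when RanGTP (0.6 uM Ran, 2 mM GTP, 0.2 uM RCC1) frees Rango (0.1 uM) from importin beta (0.25 uM). Pre-read after 5 min compound exposure flags interference.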
GLA inh pH 4.5 = blocks human alpha-galactosidase A at pH 4.5 | P06280 | purified enzyme, 4-MU-alpha-Gal fluorescence, pH 4.5 | activity change, negative = inhibition, % at 105 µM | 230,000 tested, under 10 active | AID 1467; inconclusive = small, poorly fitted or top-dose-only inhibition, or a rising curve; inactive = flat fitted curve, though single readings scatter; no compound was filed as active;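 further: 0% = full activity with enzyme and -100% = basal without enzyme; dose as in the result columns while the protocol names 77 µM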
Rango complex inh = inhibitors of Rango-importin beta complex formation. Rango CFP/YFP FRET sensor + importin beta, 45 min. Potency, µM (top dose mostly 92.2 µM), without a hit: at the highest dose inhibition of complex formation. 0.031% of 340,000 active; active = rising FRET ratio curve, often small or poorly fitted; inconclusive = mostly compound fluorescence or quenching in the first reads; inactive = flat curves in all reads;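 further: potency means the concentration at half of the fitted maximal effect; 0% = DMSO wells and 100% = buffer wells lacking importin beta; nearly all actives have a fitted effect of over 15% in size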
Target sequence (Q14974 whole entry, looked up): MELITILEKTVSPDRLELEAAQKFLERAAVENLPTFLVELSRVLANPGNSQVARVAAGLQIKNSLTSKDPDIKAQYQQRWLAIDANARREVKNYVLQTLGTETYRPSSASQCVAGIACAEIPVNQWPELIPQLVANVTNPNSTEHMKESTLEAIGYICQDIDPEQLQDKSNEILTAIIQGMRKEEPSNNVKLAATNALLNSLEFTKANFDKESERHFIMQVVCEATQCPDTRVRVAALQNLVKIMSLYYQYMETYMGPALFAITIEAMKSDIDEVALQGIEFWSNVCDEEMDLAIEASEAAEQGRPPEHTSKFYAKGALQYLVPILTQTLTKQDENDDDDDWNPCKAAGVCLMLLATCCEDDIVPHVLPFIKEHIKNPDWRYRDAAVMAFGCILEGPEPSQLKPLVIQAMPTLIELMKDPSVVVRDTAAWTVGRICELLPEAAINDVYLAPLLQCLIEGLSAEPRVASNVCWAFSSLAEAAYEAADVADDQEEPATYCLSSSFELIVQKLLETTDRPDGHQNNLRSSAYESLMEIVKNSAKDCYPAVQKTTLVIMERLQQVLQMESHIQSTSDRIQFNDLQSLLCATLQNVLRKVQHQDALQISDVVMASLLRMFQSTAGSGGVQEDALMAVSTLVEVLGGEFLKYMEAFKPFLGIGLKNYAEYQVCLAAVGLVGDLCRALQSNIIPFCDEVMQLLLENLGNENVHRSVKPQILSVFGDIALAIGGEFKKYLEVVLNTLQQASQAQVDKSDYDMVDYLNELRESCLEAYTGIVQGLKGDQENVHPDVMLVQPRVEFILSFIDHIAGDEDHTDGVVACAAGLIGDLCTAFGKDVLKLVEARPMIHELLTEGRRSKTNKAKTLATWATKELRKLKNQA
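Inhibition scored from the CFP 486 nm/YFP 530 nm FRET ratio 45 min after adding 0.125 microM importin beta to 50 nM Rango biosensor preincubated 5 min with compound (room temperature, PBS with DTT, Tween-20, BSA). No-importin wells as positive control.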
Active calls of the source: *; & = joins results of further samples.

For O=C1OC(c2ccccc2)(c2ccccc2)c2ccccc21 the results were Rango release inh -9% and Rango complex inh 1.3%.
`CCC1=NC(c2ccc(OC)cc2OC)N(O)C1(C)C` (configuration not stated) gave miR-21 reporter -4%, Rango release inh -2%, GLA inh pH 4.5 7 and Rango complex inh -5.1%.
Screening Nn1c(SCC(=O)Nc2ccc3c(c2)OCO3)nnc1C(F)(F)F returned miR-21 reporter -3%, Rango release inh 7%, GLA inh pH 4.5 3 and Rango complex inh -1.3%.
Screening COc1cc(CNc2ncnc3c2[nH]c2ccc(C)cc23)cc(OC)c1 returned miR-21 reporter 16%, Rango release inh 2%, GLA inh pH 4.5 -15 and Rango complex inh 0.0%.
Cn1c(SCC(=O)c2ccccc2F)nnc1C1CC1 was read as miR-21 reporter -33%, Rango release inh -5%, GLA inh pH 4.5 -7 and Rango complex inh 1.0%.
Screening COc1ccc(N/N=C(/C(N)=O)C2=NC(C)(C)Cc3ccccc32)cc1 returned miR-21 reporter 12%, Rango release inh 11%, GLA inh pH 4.5 -17 and Rango complex inh 0.6%.
`O=C(NCc1cccs1)c1cccc(S(=O)(=O)N2CCCCC2)c1` gave miR-21 reporter -12%, Rango release inh -9%, GLA inh pH 4.5 -2 and Rango complex inh 4.7%.
Screening Cc1c(C(=O)NC(C)C2CC3CCC2C3)cccc1[N+](=O)[O-] (configuration not stated) returned miR-21 reporter -4%, Rango release inh 7% and Rango complex inh -0.4%.
CN(C)C(=O)/C(=C/c1cn(-c2ccccc2)nc1-c1cccc([N+](=O)[O-])c1)NC(=O)c1ccccc1 was read as miR-21 reporter 1%, Rango release inh -5%, GLA inh pH 4.5 -3 and Rango complex inh 1.6%.
`CC(=NC1CCN(Cc2ccccc2)CC1)c1c(O)[nH]c(=O)[nH]c1=O` gave miR-21 reporter -8%, Rango release inh 20%, GLA inh pH 4.5 2 and Rango complex inh -1.7%.
`COc1ccc(OC)c(C(=O)C(=O)c2cc(OC)ccc2OC)c1` gave Rango release inh 6% and Rango complex inh -0.3%.
For CCN(CC)C(=O)/C(=C\c1ccc(Br)cc1)NC(=O)c1ccccc1OC the results were miR-21 reporter -11%, Rango release inh -6%, GLA inh pH 4.5 8 and Rango complex inh -1.6%.

Ordered by length of the SMILES (highest first): three of the compounds above.
`CC(=NC1CCN(Cc2ccccc2)CC1)c1c(O)[nH]c(=O)[nH]c1=O` gave miR-21 reporter -8%, Rango release inh 20%, GLA inh pH 4.5 2 and Rango complex inh -1.7%.
Screening Cc1c(C(=O)NC(C)C2CC3CCC2C3)cccc1[N+](=O)[O-] (configuration not stated) returned miR-21 reporter -4%, Rango release inh 7% and Rango complex inh -0.4%.
`CCC1=NC(c2ccc(OC)cc2OC)N(O)C1(C)C` (configuration not stated) gave miR-21 reporter -4%, Rango release inh -2%, GLA inh pH 4.5 7 and Rango complex inh -5.1%.

Continued:
COc1cc(CC2C(=O)OCC2C(=O)c2ccc3c(c2)OCO3)cc(OC)c1OC (configuration not stated) was read as Rango release inh 4% and Rango complex inh -0.5%.
For CC1CCCN(CCCNC(=O)C2CCN(S(=O)(=O)N3CCC4(CC3)OCCO4)CC2)C1 (configuration not stated) the results were miR-21 reporter -1%, Rango release inh 24% and Rango complex inh 6.1%.
Screening COc1ccc(-n2c(C)nc3c(cnn3-c3ccccc3)c2=O)cc1 returned miR-21 reporter 20%, Rango release inh -4%, GLA inh pH 4.5 -8 and Rango complex inh 4.7%.
For CCc1cc2c(=O)n(N)c(CCC(=O)O)nc2s1 the results were miR-21 reporter -1%, Rango release inh 43%, GLA inh pH 4.5 2 and Rango complex inh 0.8%.
Screening COc1ccc(N(CC(=O)N2CCc3ccccc3C2)S(=O)(=O)c2ccccc2)cc1 returned miR-21 reporter -11%&-1%, Rango release inh 1%, GLA inh pH 4.5 2 and Rango complex inh 0.5%.
Screening Cc1ccc2ncnc(Nc3ccccc3)c2c1 returned miR-21 reporter -5%, Rango release inh -3%, GLA inh pH 4.5 -1 and Rango complex inh -1.6%.
For CCC(=O)N1c2ccc(S(=O)(=O)N3CCCCC3)cc2CC1C (configuration not stated) the results were miR-21 reporter -12%, Rango release inh -15% and Rango complex inh -2.5%.
`Cc1csc(SCC(=O)Nc2cc(S(=O)(=O)N3CCOCC3)ccc2N2CCOCC2)n1` gave miR-21 reporter -7%, Rango release inh 6%, GLA inh pH 4.5 9 and Rango complex inh -1.1%.
COc1ccccc1N/C=C(\C#N)c1nc2ccccc2[nH]1 was read as miR-21 reporter -21%, Rango release inh inconclusive, GLA inh pH 4.5 2 and Rango complex inh inconclusive.
`COc1ccccc1C1CCN(c2ccc([N+](=O)[O-])c(OC)c2)CC1` gave miR-21 reporter -5%, Rango release inh 3%, GLA inh pH 4.5 -6 and Rango complex inh -3.4%.
Cc1ccc(S(=O)(=O)NC(C)(C)CN2CCC(Cc3ccccc3)CC2)cc1 was read as miR-21 reporter 25%, Rango release inh 7%, GLA inh pH 4.5 -13 and Rango complex inh 1.1%.
`CCn1cc(/C=N/NC(=O)c2cc3c(ccc4ccccc43)o2)c2ccccc21` gave miR-21 reporter -14%, Rango release inh inconclusive, GLA inh pH 4.5 -2 and Rango complex inh inconclusive.
Screening O=C(O)CCC(=O)N1CCc2cc(S(=O)(=O)NCc3ccc(Cl)cc3)ccc21 returned miR-21 reporter -3%, Rango release inh -5% and Rango complex inh -1.6%.
For CCOC(=O)N1CCC(NS(=O)(=O)c2ccccc2)CC1 the results were miR-21 reporter -1%, Rango release inh -9%, GLA inh pH 4.5 6 and Rango complex inh -3.5%.
Screening CCn1c(SCc2ccccc2)nc2ccccc2c1=O returned Rango release inh -4% and Rango complex inh 2.7%.
Screening O=C(NCc1ccncc1)c1nc(-c2cccs2)no1 returned miR-21 reporter -1%, Rango release inh 8%, GLA inh pH 4.5 -10 and Rango complex inh -2.2%.
CCn1c(NCc2ccc3c(c2)OCO3)nc2ccccc21 was read as miR-21 reporter -66%, Rango release inh 1%, GLA inh pH 4.5 1 and Rango complex inh -0.3%.
`Cc1cc(C)n(-c2nnc(C)c(=O)[nH]2)n1` gave miR-21 reporter 5%, Rango release inh -4%, GLA inh pH 4.5 1 and Rango complex inh 0.0%.
For O=C(N/N=C/C=C/c1ccccc1)c1cnccn1 the results were miR-21 reporter -14%, Rango release inh 3%, GLA inh pH 4.5 -11 and Rango complex inh 4.3%.
For COc1nc2ccc(C)cc2cc1-c1noc(-c2cccnc2)n1 the results were miR-21 reporter -10%, Rango release inh -11%, GLA inh pH 4.5 -14 and Rango complex inh -0.7%.
Screening Cc1ccc(CSc2nnc(-c3cccc(S(=O)(=O)N4CCOCC4)c3)n2C2CCCC2)cc1 returned miR-21 reporter 0%, Rango release inh -14%, GLA inh pH 4.5 -18 and Rango complex inh -2.0%.
`Cc1ccc(S(=O)(=O)N(C)c2ccc(NS(C)(=O)=O)cc2)cc1` gave miR-21 reporter -5%, Rango release inh -4%, GLA inh pH 4.5 -8 and Rango complex inh 0.1%.
For COc1ccc(N=Cc2cc(Cl)ccc2O)cc1Cl the results were miR-21 reporter 1%, Rango release inh 0%, GLA inh pH 4.5 11 and Rango complex inh 0.0%.
Screening CCN(CC)c1nc(N2CCN(CCO)CC2)nc2ccccc12 returned miR-21 reporter -16%, Rango release inh -5% and Rango complex inh 1.4%.
For O=[N+]([O-])c1cccnc1SCc1c(F)cccc1Cl the results were miR-21 reporter 0%, Rango release inh 1%, GLA inh pH 4.5 -7 and Rango complex inh -0.2%.
COC(CNC(=O)C1CCN(S(=O)(=O)c2ccc3nc4c(c(C(=O)O)c3c2)CC(C)CC4)CC1)OC (configuration not stated) was read as miR-21 reporter 2%, Rango release inh 0% and Rango complex inh inconclusive.
`Cc1ccc(OCCOc2cccc(Br)c2)c([N+](=O)[O-])n1` gave miR-21 reporter -88%, Rango release inh -4%, GLA inh pH 4.5 -4 and Rango complex inh -1.8%.
For O=C1c2cccc3cc([N+](=O)[O-])cc(c23)C(=O)N1CCN1CCCC1 the results were miR-21 reporter inconclusive, Rango release inh 0%, GLA inh pH 4.5 -4 and Rango complex inh inconclusive.
Screening COc1ccc(OC)c(/C=C/C(=O)c2ccc3c(c2)OCO3)c1 returned Rango release inh inconclusive and Rango complex inh inconclusive.
Cn1c(=O)c2c(SCC(=O)c3ccccc3)nc(C3CC3)nc2n(C)c1=O was read as miR-21 reporter -3%, Rango release inh -5%, GLA inh pH 4.5 -2 and Rango complex inh -2.1%.
For O=C(Nc1ncccc1O)c1cccc(S(=O)(=O)N2CCCc3ccccc32)c1 the results were Rango release inh -5% and Rango complex inh 5.8%.
Cc1ccc(CNC(=O)Cc2ccc(-c3ccccc3)cc2)cc1 was read as miR-21 reporter 4%, Rango release inh -1%, GLA inh pH 4.5 -18 and Rango complex inh -1.7%.
Screening O=C(/C=C/c1cccc(C(F)(F)F)c1)NNC(=O)c1ccncc1 returned Rango release inh 5% and Rango complex inh 1.5%.
Screening CCCc1nnc(SCC(=O)N2C(C)CCCC2C)n1CCCOC (configuration not stated) returned miR-21 reporter -2%, Rango release inh -10%, GLA inh pH 4.5 -7 and Rango complex inh 3.3%.
CC(C)c1ccc(C(=O)Nc2nnc(S(=O)(=O)N3CCOCC3)s2)cc1 was read as miR-21 reporter -17%, Rango release inh 24% and Rango complex inh 5.2%.
`COc1ccc(C2CC(c3ccccc3)=NN2C(=O)COC(=O)c2cccnc2Cl)cc1` (configuration not stated) gave miR-21 reporter -15%, Rango release inh 0%, GLA inh pH 4.5 2 and Rango complex inh 2.7%.
For O=C(Nc1ccccc1C(=O)NC(Cc1c[nH]c2ccccc12)C(=O)O)c1ccco1 (configuration not stated) the results were miR-21 reporter 0%, Rango release inh 8%, GLA inh pH 4.5 -20 and Rango complex inh -0.9%.
Screening Cc1ccc(Sc2ccc(N)cn2)cc1 returned miR-21 reporter -15%, Rango release inh 17%, GLA inh pH 4.5 -4 and Rango complex inh -3.7%.
Cn1cc(/C=C(\C#N)C(=O)Nc2ccccc2O)c2ccccc21 was read as miR-21 reporter -36%, Rango release inh 18µM* and Rango complex inh inconclusive.
CN(Cc1ccccc1)C(=O)COC(=O)CCNC(=O)c1ccccc1Cl was read as miR-21 reporter -2%, Rango release inh 5%, GLA inh pH 4.5 -9 and Rango complex inh -0.2%.
`CCOc1ccc(NC(=O)CN(C)C(=O)COc2cccc(CC)c2)cc1OCC` gave Rango release inh 4% and Rango complex inh -1.1%.
For Cc1c(NC(=O)C2CCCN2S(=O)(=O)c2ccccc2)c(=O)n(-c2ccccc2)n1C (configuration not stated) the results were miR-21 reporter -3%, Rango release inh 0%, GLA inh pH 4.5 -2 and Rango complex inh -1.2%.
For COC(=O)c1ccc(C)c(NC(=O)CCSc2ccccc2)c1 the results were miR-21 reporter -4%, Rango release inh 20%, GLA inh pH 4.5 -6 and Rango complex inh 0.2%.
CC1CCCCN1CC(=O)Nc1sc2c(c1C#N)CCC2 (configuration not stated) was read as miR-21 reporter -2%, Rango release inh -22%, GLA inh pH 4.5 13 and Rango complex inh inconclusive.
O=C(Nc1nccs1)C(F)(F)C(F)(F)C(F)(F)C(=O)Nc1nccs1 was read as miR-21 reporter 0%, Rango release inh 8%, GLA inh pH 4.5 0 and Rango complex inh 2.2%.
Cc1cccc(CSc2nnc(N)n2-c2ccccc2)c1 was read as miR-21 reporter -27%, Rango release inh -10%, GLA inh pH 4.5 -1 and Rango complex inh 1.7%.
For COc1ccc(NC(=O)CCCN2C(=O)C(c3ccccc3)Oc3cccnc32)cc1 (configuration not stated) the results were miR-21 reporter -10%, Rango release inh inconclusive and Rango complex inh -1.6%.
CCN(CC)c1ccc(/C=N/N(c2ccccc2)c2ccccc2)c(O)c1 was read as miR-21 reporter -1%, Rango release inh 33%, GLA inh pH 4.5 -2 and Rango complex inh 0.6%.
For O=c1c2nnn(-c3ccccc3)c2ncn1C/C=C/c1ccccc1 the results were miR-21 reporter 0%, Rango release inh 4%, GLA inh pH 4.5 4 and Rango complex inh 1.8%.
CN(CC(=O)Nc1ccccc1Br)C(=O)CN1CCN(Cc2cccc(Cl)c2)CC1 was read as Rango release inh -1% and Rango complex inh 2.1%.

A portion of the library; the hit share may differ from the screen's.
